# Assay outcomes as filed in PubChem.
# Menin MLL FP FL = inhibitors of human menin-MLL interaction, wild-type MLL peptide; Fluorescence polarization, fluorescein-MLL peptide displacement from menin; FP activity change, % at 61.4 µM; 290,000 tested, under 10 active; inconclusive = falling polarisation curve, or a change in total fluorescence; inactive = total fluorescence flat and polarisation flat or rising; no compound was filed as active; the % refers to the polarisation; negative = inhibition;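 further: % of control where 0% means no effect; inhibitors lower the polarisation; unlabelled MLL peptide was the positive control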
# Sfp PPTase inh = blocks B. subtilis Sfp PPTase activity; Q9F4F7; Biochemical Sfp PPTase activity, qHTS; Potency, µM, for inactives: max response, negative = inhibition, hits mostly inhibitors; 310,000 compounds, 3.5% hits; AID 1490; active means well fitted inhibition curve with a large enough effect; inconclusive means small, poorly fitted or top-dose-only effect, or another doubt; inactive means no such curve, though single readings can be large or run the other way;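 further: the enzyme is Sfp with the accession as filed and its product quenches rhodamine fluorescence; potency means the concentration at half of the fitted maximal effect; 0% = enzyme reaction without inhibitor and -100% = no enzyme wells; top concentration of the series not given in the record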
#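 After 15 min at room temperature with compound, 15 nM Sfp received 5 uM rhodamine-CoA plus 12.5 uM BHQ-2-ybbR (50 mM Hepes pH 7.6, 10 mM MgCl2). Rate came from the fluorescence difference over 30 min, ex 525/em 598 nm.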
# D2 agonist = human D2 receptor agonism in beta-arrestin assay; activation, % (test concentration not listed); AID 624465; 360,000 compounds, 0.084% hits; P14416; DiscoveRx PathHunter D2 beta-arrestin, luminescence, 90 min; 100% = 57 uM dopamine signal; in the data active = activation above about 40%; inconclusive = about 15% to 40%; inactive = below about 15%; further: compound concentration not given in the record; the text of the record calls up to 30% inactive
# Target sequence (P14416 whole entry, looked up): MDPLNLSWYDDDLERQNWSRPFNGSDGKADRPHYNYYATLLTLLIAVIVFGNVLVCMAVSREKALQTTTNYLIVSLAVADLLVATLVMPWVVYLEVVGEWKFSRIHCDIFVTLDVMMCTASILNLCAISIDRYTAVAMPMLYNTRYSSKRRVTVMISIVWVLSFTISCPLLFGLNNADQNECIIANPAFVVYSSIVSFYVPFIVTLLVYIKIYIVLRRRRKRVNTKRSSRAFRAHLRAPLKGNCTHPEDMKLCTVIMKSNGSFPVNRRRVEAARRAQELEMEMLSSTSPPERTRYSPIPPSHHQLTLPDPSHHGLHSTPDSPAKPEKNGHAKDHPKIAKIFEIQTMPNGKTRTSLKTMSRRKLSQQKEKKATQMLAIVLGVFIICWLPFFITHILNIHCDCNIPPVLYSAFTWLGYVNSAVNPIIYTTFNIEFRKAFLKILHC
#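 Agonist mode: compounds alone added to overnight-plated D2 PathHunter cells for 90 min at 37 C, with 57 uM final dopamine (EC100) defining full response. Beta-arrestin recruitment detected by chemiluminescent reagent, read after 1 h at ambient temperature.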
# gsp agonist = activates gsp, the McCune-Albright syndrome mutation | gsp mutant cells, cAMP HTRF, 30 min; control for the full effect not named in the record | 340,000 compounds, 0.13% hits | AID 624287 | Potency, µM (highest dose often 76.9 µM), for the others: at the highest dose activation (cAMP increase), most hits filed as activators; active = well fitted activation curve with a large enough effect; inconclusive = small, poorly fitted or top-dose-only effect, or another doubt; inactive = no such curve, though single readings can be large or run the other way; cell line not stated here;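 further: phosphodiesterase inhibitor Ro 20-1724 added with compounds to block cAMP breakdown; potency means the concentration at half of the fitted maximal effect; nearly all actives have a fitted effect of over 60% in size; about a fifth of the inactives were tested at one dose only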
#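 Cells stably selected in G418 were plated at 2000/well, grown 16-24 hr, then given compounds in DMSO with the PDE inhibitor […] (300 uM solution added) for 30 min at 37C; cAMP was read by HTRF.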
# ClpP mod = qHTS Assay for Activators of ClpP. purified B. subtilis ClpP, FRET peptide cleavage, 20 min. AID 651965, 2013. 340,000 compounds, 1.9% hits. ATP-dependent Clp protease proteolytic subunit (Bacillus subtilis (strain 168)), P80244. Potency, µM (top dose mostly 57.5 µM), for inactives: at the top dose activity change, negative = active; active = well fitted falling curve with a large enough effect; inconclusive = small, poorly fitted or top-dose-only effect; inactive = no such curve, though single readings can be large or run the other way; further: potency means the concentration at half of the fitted maximal effect; the source files actives as falling curves though it sought activators and does not explain the sign; nearly all actives have a fitted effect of over 65% in size; many hits overshoot -100%
# Target sequence (P80244 whole entry, looked up): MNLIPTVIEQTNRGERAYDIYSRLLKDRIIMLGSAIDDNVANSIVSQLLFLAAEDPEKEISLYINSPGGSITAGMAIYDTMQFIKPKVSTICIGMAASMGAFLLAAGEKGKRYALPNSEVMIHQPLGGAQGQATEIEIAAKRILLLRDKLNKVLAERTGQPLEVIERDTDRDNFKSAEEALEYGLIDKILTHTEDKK
#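 FRET quenching reversal measured ClpP activation: 10 microg/mL B. subtilis ClpP at pH 8 with the FRET-FV decapeptide, read at 430 nm after 320 nm excitation. The 20-min minus 0-min signal was scaled between DMSO/no-enzyme wells and ADEP (5.8 microM final).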
# gsp antagonist = antagonists of gsp mutant (McCune-Albright syndrome). gsp-mutant cells, cAMP HTRF, 30 min; control for the full effect not named in the record. Potency, µM (highest dose often 76.9 µM), for inactives: at the highest dose activity change, negative = inhibition, actives largely listed as inhibitors. 340,000 compounds, 0.4% hits. AID 624288; active = falling curve of any shape with a large fitted effect; inconclusive = falling curve, mostly with a smaller effect; inactive = flat or rising curve; cell line not stated here;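 further: intracellular cAMP measured with PDE inhibitor Ro 20-1724 present during compound exposure; potency means the concentration at half of the fitted maximal effect; on the % scale 0 is the no-effect control and ±100 the full control effect; nearly all actives have a fitted effect of over 65% in size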
#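 Cells, 2000/well, grown 16–24 h in DMEM 10% FBS with 0.5 mg/ml G418, then compounds plus […] (300 uM addition stock), 30 min at 37C. cAMP read by HTRF (cAMP-d2 and anti-cAMP antibody-K in lysis buffer) after 30 min RT.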
# PINK1 modulator = PINK1 expression modulation | PINK1 immunofluorescence, high-content cytometry, 24 h | Potency, µM (top dose mostly 76.6 µM), without a hit: at the highest dose activation (PINK1 increase), hits mostly activators | 410,000 compounds, 0.2% hits; active = well fitted activation curve with a large enough effect; inconclusive = small, poorly fitted or top-dose-only effect; inactive = flat fitted curve, though single readings scatter; cell line not stated here;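 further: potency means the concentration at half of the fitted maximal effect; % of control where 0% means no effect; nearly all actives have a fitted effect of over 65% in size; a mitochondrial uncoupler was the plate control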
#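 PINK1 protein, normally rapidly degraded, was detected by immunofluorescence after 24 hour compound treatment of a stable cell line. Titration data (5 concentrations) came from laser-scanning cytometry, with CCCP-treated wells as controls.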
# Numbers without * were called inactive; u = inconclusive; x = no result given; & = joins results of further samples; [ ] = another dose, or the depositor's remark. An unsorted share of the library, and some 5.1% of all compounds hit somewhere here.
SMILES,Menin MLL FP FL,Sfp PPTase inh,D2 agonist,gsp agonist,ClpP mod,gsp antagonist,PINK1 modulator
C/C(=N\NC(N)=S)C1=CCC2C3CC[C@H]4CC(O)CC[C@]4(C)C3CC[C@]12C (stereo partly specified),3.1,40µM*,4.9,-5%,-1.6%,-6%,6.3%
CCCOc1ccc(C(=O)CCC(=O)NNC(=O)c2cccs2)cc1,x,x,3.4,18%,1.3%,-1%,1.3%
Cc1cc(CNC(=O)CC2C(=O)NCCN2CC(C)(C)C)nn1C (stereo unspecified),-16,-2%,-4.7,-25%,-9.5%,-8%,0.3%
COc1ccc(-c2[nH]ncc2CNC(C)CCn2cccn2)cc1F (stereo unspecified),-1.3,20%,7.6,-18%,-4.4%,5%,2.5%
Cc1nnc(Nc2ccc(F)cc2)c2ccccc12,0.0,5%,0.4,-2%[15.4 µM],1.1%,-14%,-1.7%
CCS(=O)(=O)Nc1cccc(C2=NN(C(=O)c3ccco3)C(c3ccco3)C2)c1 (stereo unspecified),9.8,-27%,2.5,8%,x,u,13%
CC(C)[C@@H](COc1ccccc1)N1CCN(Cc2ccccc2)CCC1=O,-2.1,10%,2.7,-24%,-0.9%&1.2%,-10%,1.2%
Cc1cc2c(Nc3ccccc3O)ncnc2s1,x,x,-2.2,3%,0.5%,x,0.5%
O=C(Nc1ccc(F)cc1F)c1cc(-c2ccco2)nc2ccccc12,0.2,32µM*,1.5,-9%[15.4 µM],x,-11%,4.4%
COC(=O)c1ccccc1NC(=O)CSc1nc(O)cc(=O)n1C1CCCC1,-0.3,-6%,1.2,16%,-4.6%,15%,1.2%
CCc1nc2c(OCC(=O)C(C)(C)C)cccn2c1N(C=O)Cc1ccccc1,x,x,-2.2,x,-4.5%,x,-0.1%
Cc1c(C(=O)N2CCN(CC(=O)Nc3ccccc3Cl)CC2)oc2ccc(Br)cc12,x,x,7.3,26%,-2.7%,-26%,2.4%
CC(=O)c1sc2c(c1OC(=O)c1ccc(Cl)cc1)c(=O)n(-c1ccccc1)c(=S)n2-c1ccccc1,x,x,2.9,u,-1.3%,12%,18%
O=[N+]([O-])c1ccccc1N/N=C/c1ccccc1,3.0,2%,0.5,-25%,2.2%,9%,1.4%
CCOc1cc(-c2noc(N)c2C#N)cc(OCC)c1OCC,26,2%,41*,-34%,-0.6%,9%,2.1%
CCCc1cc(=O)oc2cc(C)cc(OCC(=O)NCCN3CCOCC3)c12,0.7,7%,-3.6,10%,3.9%,1%,-0.4%
CCCNC(=O)C(Cc1ccc(OC)cc1)NC(=O)c1ccc(Cl)cc1 (stereo unspecified),x,x,-9.7,-15%,0.4%,1%,1.8%
CCCCN(C)C(=S)Nc1ccc(Oc2ccccc2)cc1,5.0,9%,-1.9,14%,-0.9%,-12%,1.0%
O=C(Nc1ccc(Cl)cc1)Nc1nnc(CSCc2ccccc2)s1,-2.4,9%,-2.6,21%,18µM*,-14%,u
Cc1ccccc1NC(=O)CCCCCN1C(=O)[C@@H]2Cc3ccccc3CN2C1=O,x,10%,-1.7,-6%,0.6%,-15%,-0.5%
CCCN1C2CCCC1CC(NC(=O)NC13CC4CC(CC(C4)C1)C3)C2 (stereo unspecified),-1.1,2%,-1.8,-1%,1.1%,6%,1.0%
O=C(Nc1ccc(S(=O)(=O)N2CCCCC2c2cccnc2)cc1)c1c(F)cccc1F (stereo unspecified),-1.2,2%,1.3,-10%,4.6%,-13%,-1.0%
Cc1cc(NC(=O)CN2CCN(c3ccc(O)cc3)CC2)no1,3.9,79µM*,8.4,31%,-4.0%,-25%,6.8%[38.3 µM]
Cc1c(OC(C)C(=O)N2C[C@H]3C[C@@H](C2)c2cccc(=O)n2C3)ccc2c3c(c(=O)oc12)CCC3 (stereo partly specified),-0.8,14%,-5.6,x,5.0%,-12%,-0.3%
Cc1nc2ccc(NC(=O)[C@H](C)N3C(=O)C4CC=CCC4C3=O)cc2s1 (stereo partly specified),x,x,-3.0,-16%,-0.6%,13%,2.6%
O=Cc1c(OCc2ccccc2)ccc2ccccc12,5.9,-8%,-3.2,14%[15.4 µM],x,-20%,-0.1%
COc1ccccc1N1CCN(C(=O)c2sc3nc(C)nc(N4CCN(c5ccccn5)CC4)c3c2C)CC1,7.1,-8%,-4.0,-16%[15.4 µM],-1.9%,-15%,0.1%
Cn1c(Oc2ccc(F)cc2)c(C=O)c2ccccc21,-0.6,20%,-3.8,-49%[inhibitor],x,u,1.3%
COc1ccc2cc3[n+](cc2c1OC)CCc1cc2c(cc1-3)OCO2,u,18%&1%&7%&11%&7%,5.6&-1.6,x,-0.6%&-4.8%,-19%&-23%,6.0%&10%
CN(C)C(CNC(=O)c1ccccc1OCc1ccc(Cl)cc1)c1ccco1 (stereo unspecified),x,x,-2.9,-4%[15.4 µM],x,-4%,-0.1%
O=C(NCCc1ccccc1C(F)(F)F)c1cc(COc2ccccc2)on1,x,x,-1.0,-44%,0.9%,x,5.4%
Cc1cc2occ(CC(=O)NC3=NCCS3)c2cc1C(C)C,1.4,8%,-3.7,-3%,-10%,-2%,3.4%[38.3 µM]
CCC(C(=O)NC(C)(C)C)N(C(=O)Cn1nnc(-c2ccccc2F)n1)c1cccc2c1CCCC2 (stereo unspecified),-1.1,18%,-2.3,-38%[inhibitor],-1.5%,-6%,5.4%[38.3 µM]
c1ccc(N=Nc2ccc(C3=NCCO3)cc2)cc1,x,x,-6.3,-32%,-0.2%,x,2.3%
COC(=O)c1cc(Br)ccc1-c1ccc(/C=N/n2nnnc2N)o1,-1.7,14%,-0.2,3%,40%,-1%,x
N#Cc1c(Nc2ccccc2)sc(C(=O)c2ccccc2)c1N,0.1,-18%,-2.2,0%,-2.3%,-5%,0.2%
O=C(NN1CC(C(=O)OCc2ccc(Br)cc2)CC1=O)c1ccccc1 (stereo unspecified),x,10%,4.0,28%,-0.5%,13%,-0.9%
c1ccc(NCCSc2nc3ccccc3s2)cc1,x,x,-0.2,-3%,-3.5%,-5%,-1.6%
CCSc1nc2sc3c(c2c(=O)[nH]1)CC(C)(CC)OC3 (stereo unspecified),9.1,-7%,-0.6,-6%,-1.3%,5%,u
O=C(N/N=C/c1ccc(N2CCOCC2)o1)c1cccc([N+](=O)[O-])c1,1.7,1.1µM*,5.8,-1%,-2.7%,-2%,-1.8%
CCOc1ccccc1N(CC)C(=O)Cn1ncc2c(=O)oc3ccccc3c21,-2.1,11%,1.6,21%,2.6%,-7%,-0.6%
Cn1c(CCCNC(=O)c2ccco2)nc2ccccc21,x,x,-3.0,0%[15.4 µM],x,7%,4.1%
CC1(C)CC(=NOC(=O)c2ccccc2)CC(C)(C)N1O,1.3,11%,13,-19%,1.7%,-5%,2.7%
O=C(NCCCn1ccnc1)C(=O)NCC1OCCN1S(=O)(=O)c1ccc(F)cc1 (stereo unspecified),4.1,9%,-3.1,u,-1.4%,-4%,-0.3%
O=C1CSC(=S)N1N=Cc1ccccc1O,x,x,4.8,17%,-11%,-6%,-5.4%
N#Cc1nc(COc2ccccc2Cl)oc1NCc1ccc(F)cc1,5.1,17%,-0.9,27%,2.5%,-12%,7.0%[38.3 µM]
COCCn1ccc2c(OCC(=O)NCCc3ccccc3)cccc2c1=O,x,x,-2.1,-10%[15.4 µM],x,-4%,-0.3%
NS(=O)(=O)c1ccc(NC(=O)CN(C(=O)C(F)(F)F)C2CCCC2)cc1,x,x,-4.6,-29%,-1.0%,x,-0.2%
Cc1ccc(/C=N/N2CCN(c3ccccc3)CC2)cc1,0.6,-9%,3.4,-7%[15.4 µM],x,9%,1.1%
CCOC(=O)c1c(Nc2ccccc2OCCOC)n[nH]c1C,-1.4,20%,2.1,42%,0.6%,2%,-4.3%
# (continued)
SMILES,Menin MLL FP FL,Sfp PPTase inh,D2 agonist,gsp agonist,ClpP mod,gsp antagonist,PINK1 modulator
O=C(CCn1nnc2ccccc2c1=O)N[C@H](C(=O)O)c1ccccc1,5.4,9%,1.8,-9%,0.1%,10%,1.8%[38.3 µM]
O=c1sc2ccccc2c(N2CCCC2)c1[N+](=O)[O-],-3.2,12%,-3.5,6%,x,-3%,2.2%
CCc1ccc2c(Cl)c(C(=O)N/N=C/c3c[nH]c4ccccc34)sc2c1,1.5,10%,0.1,u,25µM*,-12%,9.2%
Cc1ccc(S(=O)(=O)CCSc2n[nH]c(=O)n2-c2ccc3c(c2)OCCO3)cc1,2.3,9%,-2.2,-19%,-0.5%,-10%,-2.9%
CCOCCC(=O)Nc1ccc2c(c1)c(=O)n(C)n2-c1ccc2ccccc2c1,x,x,0.9,x,-29%,x,6.9%
COc1ccc(-c2cc(C(F)(F)F)nc(SCC(=O)Nc3cc(C)on3)n2)cc1,2.8,16%,-2.7,1%,4µM*,4%,9.1%
CCOC(=O)NC(NCc1ccccc1Cl)(C(F)(F)F)C(F)(F)F,-3.7,-2%,-3.4,-2%,-1.1%,7%,-2.9%
O=C(CNC(=S)N(CCCN1CCOCC1)Cc1cccs1)N1CCCC1,-0.7,12%,-3.2,24%[15.4 µM],x,2%,1.6%
Cc1ccc(Nc2nc(-c3cccs3)cs2)nc1,1.3,u,-6.5,-16%,-6.5%,-34%,5.6%
COc1cc(C(=S)N2CCOCC2)ccc1OC(=O)c1cc([N+](=O)[O-])cc([N+](=O)[O-])c1,-0.9,-2%,-1.6,-43%,-1.6%,6%,3.6%
O=C(c1cccc(F)c1)N1CCN(S(=O)(=O)c2ccccc2)CC1,3.5,14%,-1.7,-33%[inhibitor],2.1%,6%,-0.3%
COCc1c(C(=O)N2CCN(CCOc3ccccc3)CC2)oc2ccccc12,x,x,u,-16%,6.3%,5%,-0.1%
CCc1ccc(CC2S/C(=C(\C#N)C(C)=O)NC2=O)cc1 (stereo unspecified),-3.2,-9%,-1.1,-17%,1.7%,u,2.9%
O=S(=O)(NC1CCCCC1Sc1ncccn1)c1ccccc1 (stereo unspecified),5.1,-4%,3.1,-6%,5.2%,-9%,-1.4%
O=S(=O)(NCc1ccco1)c1cnc(Cl)c(Cl)c1,1.6,1%,3.1,u,-5.4%,-16%,1.1%
